NPR1 antag: antagonists of human natriuretic peptide receptor Npr1; HEK293 hNpr1 GloSensor cGMP, ANP-stimulated luminescence; Potency, µM (doses to about 46.3 µM), inactives show at the top dose activity change, negative = inhibition, actives largely listed as inhibitors; 76,000 tested, 1.6% active; AID 1347048; active = well fitted inhibition curve with a large enough effect; inconclusive = small, poorly fitted or top-dose-only effect; inactive = no such curve, though single readings can be large or run the other way;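 also: nearly all actives have a fitted effect of over 60% in size; nearly all hits also lower the signal before the agonist is added; a reference antagonist and vehicle were the controls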
Target sequence (P16066 whole entry, looked up): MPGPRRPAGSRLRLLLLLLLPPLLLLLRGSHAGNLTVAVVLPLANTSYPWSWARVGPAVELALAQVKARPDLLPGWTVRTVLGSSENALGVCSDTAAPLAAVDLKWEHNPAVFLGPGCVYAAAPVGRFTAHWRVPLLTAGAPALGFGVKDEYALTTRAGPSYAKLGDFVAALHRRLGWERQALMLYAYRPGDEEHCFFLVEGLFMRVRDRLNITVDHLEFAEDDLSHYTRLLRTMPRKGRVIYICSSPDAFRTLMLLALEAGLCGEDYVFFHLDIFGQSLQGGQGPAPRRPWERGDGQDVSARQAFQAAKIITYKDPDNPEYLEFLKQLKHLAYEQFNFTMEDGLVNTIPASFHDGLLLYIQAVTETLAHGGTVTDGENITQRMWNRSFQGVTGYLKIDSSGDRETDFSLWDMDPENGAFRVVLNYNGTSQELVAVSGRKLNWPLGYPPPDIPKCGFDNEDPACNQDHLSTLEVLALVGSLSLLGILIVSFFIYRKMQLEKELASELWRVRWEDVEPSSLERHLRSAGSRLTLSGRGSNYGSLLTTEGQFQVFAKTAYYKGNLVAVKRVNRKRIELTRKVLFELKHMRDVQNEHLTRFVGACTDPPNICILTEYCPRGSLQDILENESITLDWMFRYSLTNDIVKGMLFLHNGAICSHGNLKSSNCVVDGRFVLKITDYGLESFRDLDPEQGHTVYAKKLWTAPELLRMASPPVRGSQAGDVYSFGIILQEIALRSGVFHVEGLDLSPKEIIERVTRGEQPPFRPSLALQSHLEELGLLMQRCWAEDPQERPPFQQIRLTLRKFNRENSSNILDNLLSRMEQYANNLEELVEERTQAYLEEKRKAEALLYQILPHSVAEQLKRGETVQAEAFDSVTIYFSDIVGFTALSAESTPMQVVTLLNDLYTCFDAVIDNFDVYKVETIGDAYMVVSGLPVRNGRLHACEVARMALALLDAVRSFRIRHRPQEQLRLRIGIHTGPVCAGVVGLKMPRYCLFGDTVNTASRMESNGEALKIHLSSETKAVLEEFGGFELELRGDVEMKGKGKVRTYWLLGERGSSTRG
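HEK293 cells stably expressing human Npr1 and cGMP GloSensor pGS-40F, loaded 2 h with 2% GloSensor reagent, given compound 30 min at room temperature. Luminescence read before and 20 min after 0.1 nM hNppA.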
Numbers without * were called inactive; ? = inconclusive; [ ] = remark or other dose. % is scaled to controls: 0 for no effect and ±100 for the full control effect; potency is read from the fitted curve at half-maximal effect.

NPR1 antag | Structure
0% | Cn1ccnc1C(=O)N1CCc2nn(C)c(=O)n2CC1
? | CN(Cc1cc(-c2cccnc2)no1)C(=O)C1COc2ccccc2C1 (stereo not drawn)
-10% | CC1CCC(NC(=O)c2noc(-c3ccccc3F)n2)CC1 (stereo not drawn)
3%[70.6 µM] | O=C(N[C@H]1[C@H](O)[C@H](O)C[C@@H]1c1ccccc1)c1ccccn1
4% | Cc1nc(C)c(C(=O)NC2CC(c3nnc(Cn4ccnc4)n3C)C2)s1 (stereo not drawn)
-4% | COc1cccc(C(=O)N[C@@H]2CN(S(C)(=O)=O)C[C@H]2CN(C)C)c1C
-10% | COc1ccc(C(=O)N2CCC3(CC2)NCCc2c3[nH]c3ccccc23)c(OC)n1
8% | Cc1c(C(C)NC(=O)CN2CC(=O)NC2=O)cnn1-c1ccc(F)cc1F (stereo not drawn)
? | O=C1[C@@H]2C[C@@H](CN2CC2CC2)Oc2ccccc2N1Cc1ccc(OC(F)(F)F)cc1
23% | CCc1ccc(C(=O)N2CCCC(c3noc(-c4cc5c(=O)[nH]c(C)cn5n4)n3)C2)cc1 (stereo not drawn)
-3%[70.6 µM] | O=C1Cc2c(-c3ccc(C(=O)N4CCOCC4)cc3)n[nH]c2CN1Cc1ccccc1
6% | CC(CNc1nccc(C2(c3ccccc3Cl)CCNCC2)n1)CN(C)C (stereo not drawn)
-1% | O=C(c1ccc(N2CC3CC(C2)[C@H]2CCCC(=O)N2C3)nc1)N1CCN(c2ccc(F)cc2)CC1 (stereo partly drawn)
-26% | CCN1c2cc(C(=O)Nc3cc(OC)cc(OC)c3)ccc2C(=O)N2CCCCCC21 (stereo not drawn)
? | Cc1ncsc1CN1CCCCC1c1nc(CCOCC2CC2)no1 (stereo not drawn)

Reprinted at random: 2 entries already listed
NPR1 antag | Structure
-1% | O=C(c1ccc(N2CC3CC(C2)[C@H]2CCCC(=O)N2C3)nc1)N1CCN(c2ccc(F)cc2)CC1 (stereo partly drawn)
3%[70.6 µM] | O=C(N[C@H]1[C@H](O)[C@H](O)C[C@@H]1c1ccccc1)c1ccccn1

More compounds.
NPR1 antag | Structure
-20%[70.6 µM] | O=C1CC2(CCN(CC3CCCCC3)CC2)Oc2ccccc21
3% | CCc1c(C)nn(CCNC(=O)c2cc(S(N)(=O)=O)ccc2F)c1C
-3% | COc1ccc(C(=O)N2CCN(C(=O)CS(=O)(=O)c3ccccc3)C[C@@H]2C(=O)N[C@H]2CCCNC2=O)cc1
-21% | CCc1noc(-c2nc(-c3cccc(F)c3)no2)n1
-2% | COC[C@@H]1CN(C(=O)CC2=CCCCC2)C[C@H]1c1ccccn1
-17% | CC(C)C(=O)N1CCN(c2nc3c(s2)CC(C(=O)Nc2ccc(Cl)cc2)CC3)CC1 (stereo not drawn)
2% | CN1C(=O)c2cccn2CC1CNC(=O)c1cccc2nccnc12 (stereo not drawn)
-3% | O=C(NCC1CCCCO1)c1coc(COc2cccc(C(F)(F)F)c2)n1 (stereo not drawn)
-2% | Cc1ccc(C(=O)N2CCC(c3n[nH]c(=O)n3-c3ccccc3)CC2)cc1
2%[70.6 µM] | c1cncc(Nc2cc3c(cn2)CN(Cc2cccs2)CCN3)c1
16%[70.6 µM] | CN(Cc1cccc(C(F)(F)F)c1)C(=O)Cc1ccc(F)cc1
-23% | CCOc1ccccc1NC(=O)N1CCC(c2cc(-c3cccc(OC)c3)n[nH]2)CC1
0% | Cc1ccc(S(=O)(=O)N2CCN(C(=O)Cn3nc4c(cc3=O)CCCC4)CC2)cc1
-4% | OCC1CN(Cc2ccc(F)cc2Cl)CC12CCNCC2 (stereo not drawn)
5% | O=C(Cn1ccn2nc(-c3ccc(F)cc3)c(CO)c2c1=O)NCCc1ccc(Cl)cc1
-1% | COc1cccc(CC(=O)N2CCc3nn(Cc4ccccc4)c(=O)n3CC2)c1
2% | O=S(=O)(c1cccnc1)N1CCc2onc(-c3cccc4ccccc34)c2C1
4%[70.6 µM] | O=C(O)CC1(CC(=O)N2CC[C@H]3NC(=O)N(c4ccc(F)cc4)C(=O)[C@H]32)CCCC1
3% | Cc1cc(C(=O)N2CCCC[C@H](N(C)C)C2)c(-c2ccccc2)o1
? | COc1ccc(CN2CCNc3cnc(OCc4cccnc4)cc3C2)cc1
-3%[70.6 µM] | O=C(Nc1ccc2[nH]ccc2c1)c1cnc2c(c1)N([S+](=O)([O-])c1cccnc1)CCC2
5% | COc1ccc(CCCN2C(=O)O[C@@H]3CN(C(=O)C4CCOCC4)C[C@@H]32)cc1
-16% | O=C1[C@H]2CN(Cc3ccc(F)cc3F)C[C@H]2C(=O)N1CCN1CCc2ccccc2C1
1% | Cc1ccc(S(=O)(=O)N(C)CC2CCOC2)cc1Cl (stereo not drawn)
4% | CN1C(=O)CCCCC1C(=O)N1CCCCC1 (stereo not drawn)
1% | CC(C)(C)NC(=O)N1CCC2(CC1)CC(Cc1cccc(F)c1)CCO2 (stereo not drawn)
-17% | Cc1ccc(CC(=O)NC2CCN(c3cc(-c4ccc(F)cc4)[nH]n3)C2)cc1 (stereo not drawn)
-8% | CCC(=O)Nc1ccc(C2(C(=O)N3CCCC(C)C3)CCCCC2)cc1 (stereo not drawn)
-3% | CC(=O)NCC(=O)N[C@@H]1CN(Cc2ccccc2)C[C@H]1CO
13% | O=C(O)C[C@@H]1CCN(C(=O)Nc2ccccc2)C[C@@H]1CCN1CCC(n2c(=O)[nH]c3ccccc32)CC1
4%[70.6 µM] | COc1ccccc1-c1cc(C(=O)NCc2cnn(C)c2)c2c(c1)N(C)CCO2
0% | CCCCc1ncc(-c2c(-c3ccccc3)ncn2CCC2CCCN2C)[nH]1 (stereo not drawn)
5% | CN1CCCC2(CCN(C(=O)CCCS(N)(=O)=O)C2)C1=O (stereo not drawn)
-11% | Cc1cc(C)cc(NC(=O)Cn2c(-c3ccccc3)nc(C)c(CCO)c2=O)c1
5% | COc1ccc(NC(=O)NCC2CCOCC2)cc1F
3% | COC(=O)[C@@H](Cc1c[nH]c2ccccc12)NC(=O)[C@@H]1CN(C(=O)c2cccnc2)CCN1C(=O)NC(C)C
-4% | CCCN(CC1CCOC1)S(=O)(=O)c1ccc(CC)cc1 (stereo not drawn)
-1% | CN1C(=O)Cc2cc(C(=O)NC3CCN(Cc4ccccc4)CC3)ccc21
? | CCc1ccc(C(=O)N2CCC3(CC2)N=C(c2cccc(Br)c2)NO3)cc1
8% | COC1CCC12CCN(C(=O)Cc1cccnc1)CC2 (stereo not drawn)
0% | CCN(CC)Cc1cnc2c(C(=O)NCc3cnn4cccnc34)cnn2c1
1% | CCc1cc(C(=O)N2CC[C@@H]3[C@@H](CCC(=O)N3CCc3cnc[nH]3)C2)n[nH]1
0% | COC[C@@H]1CN(S(=O)(=O)c2ccc(F)cc2F)C[C@H]1C(N)=O
-25% | CCCNC(=O)c1cc2c(=O)[nH]c(-c3ccccc3)cn2n1
0.56µM* | O=C(Nc1ccc(Cl)cc1)c1nc2c(o1)CCN(Cc1ccc3cn[nH]c3c1)CC2
3% | COc1cccc(CN2CCCCCCNC(=O)CC2)c1OC
-2% | CNC(=O)[C@@H]1C[C@@H](O)CN1C1CCN(C(=O)c2noc(C)c2Cc2c(C)noc2C)CC1
-4% | C[C@@H]1CN(C(=O)c2cccnc2N(C)C2CCCCC2)C[C@@]1(O)C1CCC1
-30% | CCNc1nccc(N2CCC(CC(=O)N3CCN(c4ccccc4F)CC3)CC2)n1
-15% | CO[C@H]1[C@H](NC(=O)c2cc(=O)[nH]c(=O)[nH]2)c2ccccc2C12CCNCC2
-3% | CC1CCCN(C(=O)Cc2cccn2-c2ccc(F)cc2)C1 (stereo not drawn)
0% | O=C(c1ccc(CN2C(=O)NC3(CCOCC3)C2=O)cc1)N1CCSCC1
-5% | Cc1nc2scc(CC(=O)N3CCCC3)n2c(=O)c1-c1cc(C)n(-c2cccc(F)c2)n1
7% | O=C(NCc1cccnc1)C1CCC(=O)N1C1CCNCC1 (stereo not drawn)
-2%[70.6 µM] | Cc1noc(C)c1-c1cc2c(cc(C)n2C)c(NC2CCN(C)CC2)n1
7%[70.6 µM] | CC(C)Cc1cc(CC2(NCc3ccc(N(C)C)cc3)COC2)no1
-7%[70.6 µM] | COCc1nc2nc(-c3ccccc3)c(-c3cccc(NC(C)=O)c3)cc2n1C
-7% | O=C(c1ccc(=O)[nH]n1)N1C[C@H]2OC(=O)N(CCCN3CCOCC3)[C@H]2C1
-17% | COc1ccc(-c2nc(Cn3c(-c4ccc(F)cc4)nc(C)c(CCO)c3=O)c(C)o2)cc1
3% | CCCCN1C(=O)C(CC(=O)NC2CCCC2)Sc2ncccc21 (stereo not drawn)

Part of the list above, with bars between the fields.
smiles | NPR1 antag
Cc1ccc(S(=O)(=O)N2CCN(C(=O)Cn3nc4c(cc3=O)CCCC4)CC2)cc1 | 0%
CC(C)C(=O)N1CCN(c2nc3c(s2)CC(C(=O)Nc2ccc(Cl)cc2)CC3)CC1 (stereo not drawn) | -17%
CN1C(=O)CCCCC1C(=O)N1CCCCC1 (stereo not drawn) | 4%
Cc1nc(C)c(C(=O)NC2CC(c3nnc(Cn4ccnc4)n3C)C2)s1 (stereo not drawn) | 4%
CNC(=O)[C@@H]1C[C@@H](O)CN1C1CCN(C(=O)c2noc(C)c2Cc2c(C)noc2C)CC1 | -2%
O=C(c1ccc(N2CC3CC(C2)[C@H]2CCCC(=O)N2C3)nc1)N1CCN(c2ccc(F)cc2)CC1 (stereo partly drawn) | -1%
O=C1[C@H]2CN(Cc3ccc(F)cc3F)C[C@H]2C(=O)N1CCN1CCc2ccccc2C1 | -16%

Remaining list, next part:
NPR1 antag | Structure
-2% | O=C(c1ccccn1)N1CC(=O)N(C2CCCCC2)CC(OCc2ccccc2)C1 (stereo not drawn)
-3%[70.6 µM] | Cc1ccc2c(n1)N(C)[C@H](CO)CCN(CC1CCCCC1)C2
23% | CN(CC1(c2ccccc2)CC1(C)C)C(=O)c1cc(COc2c(F)cccc2F)on1 (stereo not drawn)
-14% | CCOC(=O)C1CCN(C(=O)c2cc(Cn3nc(C)cc3C)[nH]n2)CC1
-3% | CNC(=O)c1cccnc1N1CC2CC(C1)[C@H]1CCCC(=O)N1C2 (stereo partly drawn)
3% | Cn1c(CCC(=O)N2CCCOCC2)nc2cc(S(=O)(=O)N3CCCC3)ccc21
4% | Cc1nn(-c2ccccc2)c(C)c1S(=O)(=O)N[C@@H]1[C@@H](N)[C@H]2CCO[C@H]21
-15% | O=C1CC(c2ccccc2)N(C(=O)CNC(=O)C2CCCC2)CCCCCCN1 (stereo not drawn)
-2% | Cc1ncc(CN2CCCC2C(=O)Nc2ccc(-c3cccc(F)c3)cc2)[nH]1 (stereo not drawn)
-22% | CCNc1nc2c(s1)C(c1cccc(F)c1)CC(=O)N2 (stereo not drawn)
-14% | Cc1cc(C(=O)N2CC(N(CC(C)C)C3CCOCC3)C2)nn1C
-12% | CCOC(=O)C(C)Oc1cccn2c(=O)c(-c3cc(C)n(-c4ccc(Cl)cc4)n3)c(C)nc12 (stereo not drawn)
-3% | CS(=O)(=O)N1CCC(OC2CCN(C(=O)C3(c4ccccc4)CC3)CC2)CC1
-9%[70.6 µM] | OCCc1ccc(Nc2cnc3ccc(-c4ccc(F)cc4)nn23)cc1
1% | O=C1CCC(CCC(=O)N2CCN(c3ccccc3)C(=O)C2)(Cc2ccc(F)cc2)N1 (stereo not drawn)

Entries listed so far that have a CF3 group, in the order listed:
NPR1 antag | Structure
? | O=C1[C@@H]2C[C@@H](CN2CC2CC2)Oc2ccccc2N1Cc1ccc(OC(F)(F)F)cc1
-3% | O=C(NCC1CCCCO1)c1coc(COc2cccc(C(F)(F)F)c2)n1 (stereo not drawn)
16%[70.6 µM] | CN(Cc1cccc(C(F)(F)F)c1)C(=O)Cc1ccc(F)cc1

(next part)
NPR1 antag | Structure
-1% | O=C(c1n[nH]c2ccccc12)N1CCC(c2nc(C3CCOCC3)no2)C1 (stereo not drawn)
-16% | O=C(CCn1ccn2nc3c(c2c1=O)CCCC3)Nc1cc(F)cc(F)c1
2% | O=C(CCc1cc2ccccc2[nH]c1=O)N1CCN(C(=O)c2ccco2)CC1
0% | CCCCNC(=O)c1nnn2c1COC(c1ccc(C)cc1)C2 (stereo not drawn)
? | O=C(NCc1nnc2cc(-c3nc(C4CC4)no3)ccn12)c1ccc(F)c(Cl)c1
10% | CCn1cc(CN2CCC3(CC2)CN(c2ccncn2)CC3CO)c(C)n1 (stereo not drawn)
11% | O=C(Cc1cccs1)NCC1CCCCC(=O)N1 (stereo not drawn)
7%[70.6 µM] | CCCCc1cc(C[C@H]2CNCC[C@H]2CC(=O)NCCNC(C)=O)no1
-3% | O=C(c1ccc(CN2C(=O)NC3(CCOCC3)C2=O)cc1)N1CCc2ccccc2C1
-29%[70.6 µM] | CN(C)[S+](=O)([O-])c1ccc2c(c1)OCCN(Cc1ccncc1)C2
0% | Cc1cn2nc(C(=O)N3CCC(NC(=O)c4cc(Cl)ccc4F)CC3)cc2c(=O)[nH]1
-1% | CCn1cc(CN2CCCN(S(=O)(=O)c3ccccc3)CCC(=O)NCC2)c(C)n1
0% | CCOc1ccc(NC(=O)Cn2c(N3CCOCC3)nc(COC)cc2=O)cc1
-16% | COCCNC(=O)[C@@H]1C[C@@H](O)CN1C1CCN(C(=O)Cc2ccccc2)CC1
5% | COC1CCC12CCN(C(=O)C1CCCC1)CC2 (stereo not drawn)
-1% | CC(C)C(=O)N1CCc2nnc([C@@H]3C[C@@H](O)CN3C)n2CC1
5% | CC(C)(C)c1cccc(CN2CCC3(CCNCC3)C2)c1O
-6% | O=C(COc1ccccc1-n1cnnc1)NC1CCCc2c1[nH]c1ccccc21 (stereo not drawn)

Source: PubChem BioAssay

These rows are one share of the data (hit frequency here may not be typical).
